T cruzi repl: blocks replication of Trypanosoma cruzi; T. cruzi beta-gal in NIH3T3, luminescence, 90 h; inhibition, % (test concentration not listed); hit rate 1.4% among 300,000;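 active = mean inhibition across valid replicates above about 55%, limit read from the data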;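 also: signal also drops with host cell toxicity which is not excluded here; 0% = plate median of DMSO wells and 100% = zero luminescence signal; higher percent means less beta-gal luminescence so fewer parasites; stock transfer was 50 nL into about 50 µL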
MLL AF4-AF9 inh: blocks AF4 peptide binding to human AF9 | AlphaScreen, biotin-AF4 peptide binding to FLAG-AF9 | inhibition, % at 10 µM | hit rate 0.47% among 350,000 | AID 651704;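 active = every replicate reaching a set inhibition limit, whatever the replicate mean, cut at about 25% in these data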;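 also: 0% = plate neutral control median and 100% = total signal loss; the record names both 10 and 1 µM as test concentration; the first replicate is given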
Target sequence (P42568 whole entry, looked up): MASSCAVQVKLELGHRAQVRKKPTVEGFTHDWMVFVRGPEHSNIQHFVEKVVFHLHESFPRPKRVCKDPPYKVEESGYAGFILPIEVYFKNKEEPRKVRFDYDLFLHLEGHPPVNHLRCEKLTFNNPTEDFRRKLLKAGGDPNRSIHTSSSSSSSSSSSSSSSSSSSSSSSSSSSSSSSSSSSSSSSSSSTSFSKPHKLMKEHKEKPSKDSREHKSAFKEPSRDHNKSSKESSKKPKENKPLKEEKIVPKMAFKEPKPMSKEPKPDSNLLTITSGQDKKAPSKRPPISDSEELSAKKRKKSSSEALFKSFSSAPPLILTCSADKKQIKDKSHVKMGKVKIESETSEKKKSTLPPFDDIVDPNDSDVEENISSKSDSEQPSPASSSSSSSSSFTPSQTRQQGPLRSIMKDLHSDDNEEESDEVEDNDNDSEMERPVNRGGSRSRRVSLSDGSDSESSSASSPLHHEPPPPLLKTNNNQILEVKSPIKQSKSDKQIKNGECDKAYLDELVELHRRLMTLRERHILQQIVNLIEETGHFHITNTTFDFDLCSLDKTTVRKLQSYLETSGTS
Ecoli rRNA inh: inhibits bacterial ribosomal RNA function over humanized ribosomes; E. coli WT GFP vs humanized-ribosome RFP mutants, fluorescence, 24 h; active compounds read low; DMSO median 0, no signal -100; GFP signal change (wild-type ribosome), % (concentration not given with the values); hit rate 1.6% among 350,000;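 active = significant combined selectivity score with lowered wild-type GFP, culture density cut under 30%, mutant RFP and density less affected; inactive = any of these conditions unmet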; also: one replicate is shown; some compounds called inactive have numbers as strong as hits
FGF22 binding: shifts melting point of recombinant human FGF22. hit rate 1.5% among 340,000. Q9HCT0. calls only at 9.99 µM. AID 651658. recombinant FGF22 thermal shift, SYPRO orange fluorescence; percent of sucrose octasulfate shift, DMSO zero;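 active = melting point raised past a set limit in the mean and every replicate; three in four hits are not shown here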
Target sequence (Q9HCT0 whole entry, looked up): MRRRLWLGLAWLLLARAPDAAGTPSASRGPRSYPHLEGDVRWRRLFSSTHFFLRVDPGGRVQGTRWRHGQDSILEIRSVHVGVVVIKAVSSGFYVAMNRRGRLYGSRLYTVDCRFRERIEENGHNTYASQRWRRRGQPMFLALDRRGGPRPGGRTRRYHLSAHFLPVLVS
E coli growth: blocks Escherichia coli growth. OD600, 23 h; active compounds read low. OD600 absorbance (no concentration beside the values). hit rate 0.21% among 330,000. AID 1053175;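 active = OD600 absorbance below the run mean of sample wells minus 3.6 SD, in any replicate, cut at about 0.56 in these data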;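 also: stock transfer was 300 nL into about 60 µL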
UCH37 DUB inh: blocks the human deubiquitinase UCH37. purified proteasome/UCH37, Ub-AMC cleavage fluorescence. inhibition, % (no concentration beside the values). hit rate 0.33% among 330,000;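 active = mean of two replicates above 20%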;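 also: 0% = compound-free wells with enzyme and 100% = wells lacking proteasome; stock transfer was 100 nL into about 20 µL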
Target sequence (Q9Y5K5 whole entry, looked up): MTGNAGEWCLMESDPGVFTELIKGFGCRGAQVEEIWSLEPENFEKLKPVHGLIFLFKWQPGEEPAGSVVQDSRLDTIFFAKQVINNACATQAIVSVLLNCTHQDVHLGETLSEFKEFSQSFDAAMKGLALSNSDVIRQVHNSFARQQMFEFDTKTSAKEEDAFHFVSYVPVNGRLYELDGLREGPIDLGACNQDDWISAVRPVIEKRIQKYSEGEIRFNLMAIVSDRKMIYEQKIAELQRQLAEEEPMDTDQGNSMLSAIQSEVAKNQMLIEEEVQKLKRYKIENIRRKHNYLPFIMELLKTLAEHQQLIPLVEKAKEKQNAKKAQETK
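system = Proteasome-associated human UCH37 deubiquitinase | amount = 0.15 nM proteasome as dispensed | medium = pH 7.4 Tris-HCl (50 mM) with ovalbumin, ATP-MgCl2, DTT | incubation = 30 min preincubation with enzyme, 25 min cleavage at room temperature | detection = AMC fluorescence 355/460 nm | read-out basis = percent inhibition | controls = no-proteasome and no-compound wells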
Beta cell apopt: blocks beta cell apoptosis; AID 435005; INS-1E cytokine-induced death, ATP luminescence, 48 h; percent of positive-control rescue, neutral wells zero; hit rate 0.8% among 300,000; protection from apoptosis, % (test concentration not listed);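 active = all replicates at 75% or more, or half of them and the mean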;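 also: 0% = cytokine-treated negative control wells and 100% = positive control rescue; higher means more ATP so stronger rescue from cytokine killing; wells of about 40 µL received 100 nL stock; the first replicate is given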
Bfl-1 A1 inh: inhibitors of the anti-apoptotic protein A1, read as caspase activation; MEF A1-2A-BIM cells, Caspase-Glo 3/7 luminescence, 3 h; percent of clofoctol response, vehicle zero; caspase activation, % (test concentration not listed); hit rate 0.066% among 330,000;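 active = over half of replicate activation scores above 10%, or exactly half above 10 with the replicate mean above 10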;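 also: wells of about 30 µL received 50 nL stock; many hits fall short of the cut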
Ecoli rRNA inh OD600: also measured in Ecoli rRNA inh; calls as there; OD600 change, %; measured here: OD600 growth;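 optical density of the mix in the first replicate; 0 = DMSO median and -100 = no signal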
Ecoli rRNA inh RFP: recorded beside Ecoli rRNA inh, whose call it bears; RFP signal change, %; measured here: RFP humanized mutant strains;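 first replicate; 0 = DMSO median and -100 = no signal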
* = called active by the depositor; i = inactive; / = no result given. Not all compounds are listed, so the mix of outcomes need not match the whole.

SMILES	T cruzi repl	MLL AF4-AF9 inh	Ecoli rRNA inh	Ecoli rRNA inh OD600	Ecoli rRNA inh RFP	FGF22 binding	E coli growth	UCH37 DUB inh	Beta cell apopt	Bfl-1 A1 inh
O=C(Cc1cccs1)Nc1ccc(-c2nnc(-c3ccccc3)o2)cc1	4	/	/	/	/	/	0.72	-7.9	10	-0.5
CCOC(=O)CC(NC(=O)c1ccccc1)c1ccc(OC)cc1 (centres undefined)	-2	-0.7	2	0	2.0	i	0.69	1.5	5	-0.7
COc1cccc(NC(=O)CCC(=O)NCc2ccco2)c1	-16	/	/	/	/	/	0.71	1.9	-6	0.7
CC(=O)c1ccc(N2CCN(Cc3nc(Cc4ccccc4)no3)CC2)cc1	-9	0.7	-12	-18	0.6	i	0.68	1.8	4	0.0
CC(C)(C)OC(=O)C[C@H]1C/C=C\C[C@H](CC(=O)NCCO)C(=O)N[C@@H](Cc2ccccc2)COC1=O	/	/	7	6	0.9	i	/	0.6	-1	1.8
Cc1ccc(NC(=O)c2ccc(C(C)(C)C)cc2)cc1[N+](=O)[O-]	34	/	/	/	/	/	0.7	2.7	7	-0.7
CCCn1c(=O)c(-c2ccccc2)c(O)c2ccccc21	-2	/	/	/	/	/	0.69	0.1	-8	0.4
CCCCCSc1nnc(C)c(=O)[nH]1	-1	-36	-4	-1	18	i	0.69	3.0	0	-0.5
O=C(NCCCCc1ccccc1)Nc1ccc(F)cc1F	5	0.2	-3	-17	-0.6	i	0.66	2.1	-5	0.8
Cc1noc(C)c1S(=O)(=O)N1CCC(C(=O)N2CCC(C)CC2)CC1	3	/	/	/	/	/	0.71	6.1	4	-0.5
CCN(CC)S(=O)(=O)c1cc(C(=O)OC)ccc1Cl	-9	/	/	/	/	/	0.65	5.1	1	0.1
CCCCNC(=O)O[C@H]1C[C@@H]2CCN3C(=O)CCC(C)(C)[C@H](C1)[C@H]23	-9	-3.8	1	2	-8.5	i	/	-0.2	-4	0.3
COc1ccc(Cc2nnc(NC(=O)c3cccc(F)c3)s2)cc1OC	-14	-2.6	12	17	0.0	i	0.7	5.2	-5	0.3
O=C1C2=C(NC(=S)NC2c2ccc(Cl)cc2)NC(c2ccc(Cl)cc2)N1c1ccc(Cl)cc1 (centres undefined)	57*	/	/	/	/	/	0.68	0.2	-12	0.6
Cc1ccc(Cl)cc1NS(=O)(=O)c1cc2[nH]c(=O)c(=O)[nH]c2cc1C	-3	-3.4	8	0	4.7	i	0.69	11	7	0.3

Next part, starting with the last two of the part before.
SMILES	T cruzi repl	MLL AF4-AF9 inh	Ecoli rRNA inh	Ecoli rRNA inh OD600	Ecoli rRNA inh RFP	FGF22 binding	E coli growth	UCH37 DUB inh	Beta cell apopt	Bfl-1 A1 inh
O=C1C2=C(NC(=S)NC2c2ccc(Cl)cc2)NC(c2ccc(Cl)cc2)N1c1ccc(Cl)cc1 (centres undefined)	57*	/	/	/	/	/	0.68	0.2	-12	0.6
Cc1ccc(Cl)cc1NS(=O)(=O)c1cc2[nH]c(=O)c(=O)[nH]c2cc1C	-3	-3.4	8	0	4.7	i	0.69	11	7	0.3
Cc1ccc(CN(C(=O)c2cc(=O)c3cc(C)cc(C)c3o2)C2CCS(=O)(=O)C2)cc1 (centres undefined)	-5	4.2	-26	-41	0.6	i	0.62	5.3	8	0.5
CN(CC(=O)Nc1ccc(Cl)c(C(F)(F)F)c1)C(=O)CC1Sc2ccccc2NC1=O (centres undefined)	7	-8.6	-56	-75	-15	i	0.66	1.3	/	0.0
CN(C)CCN(C(=O)/C=C/c1cccs1)c1nc2ccc(F)cc2s1	43	/	/	/	/	/	0.67	-4.9	-2	-0.5
N#C/C(=C\c1cn(CCOc2ccccc2)c2ccccc12)C(=O)NCc1cccs1	-1	/	/	/	/	/	0.7	-15	3	-0.1
O=C1CC(NS(=O)(=O)c2cc(F)ccc2F)CN1c1ccc2c(c1)OCCO2 (centres undefined)	-5	-1.6	-4	-5	1.0	i	0.64	1.9	-2	0.7
COc1ccc(OC)c(-c2csc(NC(=O)Cc3ccccc3OC)n2)c1	29	0.3	-10	-13	8.8	i	0.67	3.6	-5	0.9
Cc1nn(C)cc1CN1CCCC(C(=O)c2ccc(-c3ccccc3)c(F)c2)C1 (centres undefined)	42	-2.5	-3	7	-1.7	/	0.63	1.6	9	0.4
COc1ccccc1NC(NC(=O)c1ccco1)C(=O)c1ccccc1 (centres undefined)	-11	-8.2	-5	-3	5.8	i	0.71	3.8	1	0.6
COc1ccccc1C(C)NC(=O)c1cc(=O)[nH]c2ccccc12 (centres undefined)	-5	-0.9	8	13	-1.8	i	0.7	-16	3	-0.3
FC(F)(F)c1ccc(Sc2nnc(-c3cccs3)n2CC2CCCO2)nc1 (centres undefined)	5	/	/	/	/	/	0.69	7.2	-5	-0.8
Cc1ccnc(NS(=O)(=O)c2ccc(N3C(=O)C4CCCCC4C3=O)cc2)n1 (centres undefined)	-26	-1.0	4	14	-1.6	i	0.64	-1.1	-1	-0.3
CCCn1c(=O)c(C(=O)NCCc2ccc(OC)cc2)c(O)c2ccccc21	28	-5.9	-2	-20	-1.9	i	0.67	-3.7	-2	-0.3
COC(=O)C1C(c2ccccc2)C(C(=O)N2CCOCC2)C1c1ccccc1 (centres undefined)	-9	/	/	/	/	/	0.68	3.3	-7	0.7
Cc1ccc(C(=O)Nc2cccc(C(F)(F)F)c2)cc1Nc1ncnc2nc[nH]c12	-3	-0.2	-12	-1	1.0	i	/	/	1	-1.6
CCCOc1ccc(C2=NNC(c3cccs3)=Nc3ccc(OC)cc32)cc1	20	/	/	/	/	/	0.75	5.5	3	-0.1
CC1Sc2ccc(S(=O)(=O)N3CCC(C(=O)N4CCN(C)CC4)CC3)cc2NC1=O (centres undefined)	16	1.5	-1	-2	-4.8	i	0.67	1.2	-8	0.7
CCOc1ccc(N(C)S(=O)(=O)c2ccc(C)c(C(=O)Nc3nnc(C4CC4)s3)c2)cc1	/	-1.7	-8	-39	1.7	i	0.72	5.8	-3	0.7
CCC(C)NC(=O)CN(c1cc(C)ccc1OC)S(C)(=O)=O (centres undefined)	-10	/	/	/	/	/	0.68	0.1	-4	1.6
CCN1CCSc2ccc(C(=O)NCc3ccccc3C)cc21	16	49*	-3	-3	1.3	i	0.73	-182	1	0.1
N#CC(C#N)=C/C(C#N)=C(/N)N1CCN(c2ccc(Cl)cc2)CC1	14	-15	-8	-15	11	i	0.72	-36	9	-0.3
O=C(N/C(=C\c1ccccc1)C(=O)N1CCN(CCO)CC1)c1ccccc1	0	/	/	/	/	/	0.69	1.9	2	-0.2
c1ccc(-c2noc(C3CCC3)n2)nc1	8	/	19	-1	-0.1	i	0.65	2.1	-10	-1.1
Cc1ccnc(NC(=O)c2cc(-c3ccc(Cl)s3)nc3ccccc23)c1	23	7.1	16	10	1.6	/	0.7	-54	17	-0.2
Cc1cccc2nc(-c3ccco3)c(Nc3ccccc3)n12	-6	2.4	3	5	9.9	i	0.66	-158	-4	0.7
CCN(CC(=O)Nc1ccccc1OC)C(=O)/C=C/c1cccs1	1	-21	-1	3	-4.1	i	0.62	3.2	1	-0.9
CC(=O)c1c(C)[nH]c(C(=O)CN2C(=O)NC(C)(c3ccc(C)cc3)C2=O)c1C (centres undefined)	-1	2.0	-19	-27	-0.2	i	0.7	-0.3	-9	0.0
C/C(=N/OCc1ccc(Br)cc1)c1ccccn1	-3	0.4	0	-6	1.9	i	/	/	-2	-7.5
Cc1ccc(NC(=S)Nc2ccc(S(=O)(=O)Nc3ncccn3)cc2)c(C)c1	-4	0.0	11	5	1.3	i	0.67	0.2	4	-0.1
Cc1ccc(CN2C(=O)C(C)(C)Oc3ccc(C(=O)N4CCCCC4)cc32)cc1	25	/	/	/	/	/	0.73	4.9	5	0.2
O=C(NN1C(=O)/C(=C/c2ccc(O)cc2)SC1=S)c1cccc(O)c1	-10	7.7	-25	-23	-0.7	/	0.67	6.2	-2	-1.2
COc1ccc(NC(=O)CSc2nc(N)c(NC(=O)c3ccccc3F)c(=O)[nH]2)cc1	-9	-2.1	11	7	0.5	i	0.66	1.5	/	-1.0
COc1ccc(OCCOc2ccc(C)nc2[N+](=O)[O-])cc1	-5	/	/	/	/	/	0.64	4.8	-12	-1.2
O=C(NNS(=O)(=O)c1ccc2ccccc2c1)c1cc(-c2ccccn2)nc2ccccc12	-4	-5.1	-22	-19	1.8	i	0.7	1.3	3	-0.8
O=C(O)c1cc(-c2cccs2)nn1-c1ccc(F)cc1	-12	-1.7	-1	-2	1.8	i	0.69	3.3	2	-0.3
O=C(CSc1ccc2c(c1)OCCO2)Nc1ncccc1O	-10	13	4	-1	-1.4	i	/	/	2	-1.3
O=C(O)C(=Cc1cccc([N+](=O)[O-])c1)c1ccc(Cl)cc1	/	-1.5	-6	-11	1.7	i	0.64	3.5	/	/
CC(=O)NCCOc1ccc2oc3ccccc3c2c1	-10	/	/	/	/	/	0.72	4.2	-4	0.0
Cc1ccc(OCCC(=O)Nc2ccc(C)c(S(=O)(=O)N3CCOCC3)c2)cc1	/	-0.3	-3	-6	2.7	i	0.7	0.1	-3	0.0
CC(C)NC(=O)NC(=O)COC(=O)c1cccc(S(=O)(=O)N2CCCCC2)c1	-21	/	/	/	/	/	0.71	5.0	4	1.8
COC(=O)CN1C(=O)C(O)=C(C(C)=O)C1c1ccc([N+](=O)[O-])cc1 (centres undefined)	-5	/	/	/	/	/	0.69	9.4	-6	-0.9
Cc1nn(C)c(Oc2ccccc2)c1CCNC(=O)CC(C)C	-18	-2.5	3	4	-1.4	i	0.71	2.1	10	0.0
O=C(COC(=O)[C@H](Cc1c[nH]c2ccccc12)NC(=O)c1ccc(Cl)cc1)Nc1ccc2c(c1)OCO2	-10	/	/	/	/	/	0.74	4.8	-7	0.7
O=C(c1cc2ccccc2oc1=O)N(Cc1cccs1)CC1CCCO1 (centres undefined)	-11	-3.4	8	3	7.5	i	0.69	1.3	-4	0.0
O=C(Nc1csc(Cc2c(Cl)cccc2Cl)n1)NN1CCOCC1	-4	-1.7	-2	-4	-1.6	i	0.64	2.0	/	0.3
O=C(NCc1cccc(Cl)c1)c1ccc(-c2csnn2)cc1	14	/	10	5	0.1	i	0.66	5.1	1	0.6
CC(C)(C)c1cc(C(F)(F)F)n2ncc(-c3ccccc3)c2n1	-6	-2.2	14	21	0.5	i	0.68	3.4	9	1.1
CCOc1ccccc1C(=O)N(C)Cc1cc2ccccc2[nH]c1=O	-1	/	/	/	/	/	0.81	-2.8	-8	0.3
COc1ccc(NC2c3ncccc3C(=O)N2Cc2ccccc2)c(OC)c1 (centres undefined)	-1	/	/	/	/	/	0.7	0.4	-5	0.1

Part of the list above in order of molar mass, falling:
SMILES	T cruzi repl	MLL AF4-AF9 inh	Ecoli rRNA inh	Ecoli rRNA inh OD600	Ecoli rRNA inh RFP	FGF22 binding	E coli growth	UCH37 DUB inh	Beta cell apopt	Bfl-1 A1 inh
N#C/C(=C\c1cn(CCOc2ccccc2)c2ccccc12)C(=O)NCc1cccs1	-1	/	/	/	/	/	0.7	-15	3	-0.1
FC(F)(F)c1ccc(Sc2nnc(-c3cccs3)n2CC2CCCO2)nc1 (centres undefined)	5	/	/	/	/	/	0.69	7.2	-5	-0.8
CCOC(=O)CC(NC(=O)c1ccccc1)c1ccc(OC)cc1 (centres undefined)	-2	-0.7	2	0	2.0	i	0.69	1.5	5	-0.7
